# Vif TR-FRET – HIV-1 Vif–A3G interaction blockers – biochemical, TR-FRET, GST-Vif 1-94, biotin-A3G peptide, dose response retest, primary screen (AID 1117319); TR-FRET GST-Vif / biotin-A3G peptide binding; higher % means a stronger effect; test concentration not given here; strong numbers were not always called active; inhibition, %, or IC50 in µM where a hit was titrated; 0.57% of 260,000 active;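 active means above the screen mean plus three standard deviations and confirmed in dose response; inconclusive means results disagree or hit not tested in dose response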;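 further: Vif residues 1-94 fused to GST binding biotinylated APOBEC3G peptide 110-148; 0% = full assay without inhibitor and 100% = GST in place of GST-Vif; retest series ran down from 100 µM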
# LANA-H2B inh – blocks KSHV LANA binding to histone H2A/H2B; Q9QR71; AID 2629; cell-free LANA-H2A/H2B peptide, fluorescence polarization; 0.6% of 320,000 active; inhibition, % (concentration not given with the values); in the data active means inhibition mostly above about 10%, no sharp cut-off; inactive means mostly below about 6.7%;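 further: stock transfer was 7.5 nL into about 10 µL; 0% = median of vehicle wells and 100% = median of positive control wells; one replicate is shown; the record names a cut of 25% in any replicate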
# RanGTP-Impb inh – inhibitors of RanGTP-importin-beta interaction, primary screen, biochemical, FRET, CFP-Ran, YFP-importin-beta, homogeneous; cell-free CFP-Ran/YFP-importin-beta FRET ratio; inhibition, % (concentration not given with the values); 1.1% of 300,000 active;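 active means most replicates above 15%; inconclusive means exactly half above 15%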;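 further: 0% = DMSO wells and 100% = Ran loaded with GDP instead of GTP; wells of about 40 µL received 100 nL stock; the first replicate is given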
# ALR inh – human ALR oxidase inhibition via reduced H2O2 | P55789 | purified ALR, DTT oxidation, H2O2 HRP-luminol luminescence | inhibition, % (test concentration not listed) | 3.8% of 290,000 active | AID 485317;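 active means mean and each replicate at 75% or more; inconclusive means only one of the two met; inactive means neither met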;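 further: stock transfer was 7.5 nL into about 7.5 µL; 0% = neutral wells and 100% = wells with inactivated enzyme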
# Target sequence (P55789 whole entry, looked up): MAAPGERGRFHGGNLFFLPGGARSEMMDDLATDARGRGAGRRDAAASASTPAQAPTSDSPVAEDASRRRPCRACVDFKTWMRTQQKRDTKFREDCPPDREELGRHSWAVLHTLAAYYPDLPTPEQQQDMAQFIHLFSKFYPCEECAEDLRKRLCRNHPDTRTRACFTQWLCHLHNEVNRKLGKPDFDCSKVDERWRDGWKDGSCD
# Calb FLC – C. albicans growth modulation with fluconazole; AID 1979; 0.57% of 300,000 active; growth inhibition, % (concentration not given with the values); C. albicans CaCi-2 (fluconazole-resistant clinical isolate) + fluconazole, Alamar Blue growth, 48 h;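 active means most replicates above 75%; inconclusive means exactly half above 75%; inactive means most below 75%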;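 further: all wells also contain fluconazole at 8 µg/ml as a sub-toxic cotreatment; 0% = median of DMSO wells and 100% = median of geldanamycin control wells; wells of about 8 µL received 7.5 nL stock; the first replicate is given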
# Beta2AR agonist – human beta-2 adrenergic receptor agonism by FAP | 0.43% of 340,000 active | Am2.2-beta2AR cells, FAP receptor internalization, flow cytometry; reference of the scale not given here | response, % (test concentration not listed) | AID 504454;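 active means response above a set limit, near 3 SD of response in nonfluorescent compounds, cut at about 42% in these data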;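 further: stock transfer was 100 nL into about 11 µL; a reference agonist was the positive control; negative values mostly stem from fluorescent compounds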
# Target sequence (P07550 whole entry, looked up): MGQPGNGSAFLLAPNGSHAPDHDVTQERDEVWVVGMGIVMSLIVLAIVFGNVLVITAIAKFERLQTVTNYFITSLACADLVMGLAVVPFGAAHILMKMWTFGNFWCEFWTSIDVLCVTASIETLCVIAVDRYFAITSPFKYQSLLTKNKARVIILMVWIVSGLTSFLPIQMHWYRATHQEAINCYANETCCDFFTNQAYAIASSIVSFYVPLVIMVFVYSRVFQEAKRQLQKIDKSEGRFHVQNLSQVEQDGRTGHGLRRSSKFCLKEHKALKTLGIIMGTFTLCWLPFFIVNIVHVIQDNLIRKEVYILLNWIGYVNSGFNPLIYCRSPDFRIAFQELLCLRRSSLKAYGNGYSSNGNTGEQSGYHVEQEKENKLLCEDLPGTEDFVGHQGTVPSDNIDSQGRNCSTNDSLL
# HNF4A DNA FP – change in binding of human HNF4 alpha to DNA; HNF4a-FITC DNA binding, fluorescence polarization, 1 h; AID 1224865; activity change, % at 10 µM; 0.3% of 360,000 active; in the data active means activity change above about 30%, passing the limit was not always enough;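 further: controls were the assay level and a saturating level of protein; the project sought stronger binding though the title names inhibitors; some compounds called inactive have numbers as strong as hits; positive values seem to mean higher polarization but the record does not say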
# Target sequence (P41235 whole entry, looked up): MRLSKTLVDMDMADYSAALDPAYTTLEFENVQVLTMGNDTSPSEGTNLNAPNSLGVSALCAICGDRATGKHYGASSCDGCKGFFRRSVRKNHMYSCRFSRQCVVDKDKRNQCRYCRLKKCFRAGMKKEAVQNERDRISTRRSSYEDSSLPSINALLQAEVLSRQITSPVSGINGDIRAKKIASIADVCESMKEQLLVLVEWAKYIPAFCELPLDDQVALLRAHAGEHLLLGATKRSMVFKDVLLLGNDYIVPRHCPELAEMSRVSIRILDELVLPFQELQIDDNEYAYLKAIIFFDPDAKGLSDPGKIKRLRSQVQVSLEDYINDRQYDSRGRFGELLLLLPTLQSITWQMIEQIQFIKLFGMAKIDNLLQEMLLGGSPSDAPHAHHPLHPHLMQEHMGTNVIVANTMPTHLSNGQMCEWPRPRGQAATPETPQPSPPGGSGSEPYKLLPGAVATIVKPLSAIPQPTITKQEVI
# Numbers without * were called inactive; ? = inconclusive; . = not tested or not shown; & = joins results of further samples.
SMILES,Vif TR-FRET,LANA-H2B inh,RanGTP-Impb inh,ALR inh,Calb FLC,Beta2AR agonist,HNF4A DNA FP
CCN1C(=O)C(CC(=O)Nc2ccc(OC)cc2)N(CCCN2CCN(c3ccc(F)cc3)CC2)C1=S (centres undefined),6%,.,2.3,7,-2,27,-4.8
CN(c1ccccc1)c1nc(N)c(C#N)c(CC#N)c1C#N,1%,-0.1,-0.9,27,4,2,-2.7
CC(C(=O)OCn1nnc2ccccc2c1=O)N1C(=O)c2ccccc2C1=O (centres undefined),-11%,3.6,0.4,.,9,0,-0.4
CN(C)N1C(N)=C(C#N)C(c2ccc(Br)cc2)C2=C1CC(C)(C)CC2=O (centres undefined),-10%,1.5,-2.1,-6,0,-3,0.9
COc1cc(C(=O)NCC(c2ccco2)N2CCOCC2)cc(OC)c1OC (centres undefined),-2%,3.4,4.5,.,0,2,0.6
COc1cccc(C(=O)/C=C/c2ccc(N3CCCCC3)c([N+](=O)[O-])c2)c1,-6%,-1.9,-1.5,-3,10,2,2.8
CCCCNC(=O)c1cccc(NC(=O)C(=O)c2ccccc2NC(C)=O)c1,5%,2.6,-1.5,.,-7,1,-2.1
CCCCc1nnc(NC(=O)Cc2ccc(OC)c(S(=O)(=O)N3CCOCC3)c2)s1,0%,-2.0,.,8,3,5,-0.5
CCC1Oc2ccccc2N(CC(=O)Nc2ccccc2OC)C1=O (centres undefined),-6%,-6.7,-3.4,-11,31,-5,0.4
CCC(C)[C@H](NC(=O)Nc1ccc(C)cc1C)C(=O)O (some centres undefined),2%,-1.7,7.9,-32,-7,3,0.5
COc1ccc(/C=N/Nc2cc(C)nc(-n3nc(C)cc3C)n2)cc1,.,-3.0,-3.2,1,-6,-12,0.4
CC1(C)Cn2c(nnc2-c2ccccc2)S1,1%,1.8,-4.0,-7,-2,12,0.7
O=C(N/C(=C\c1ccccc1)C(=O)N1CCN(CCO)CC1)c1ccccc1,29%,0.7,3.1,-20,-9,3,1.9
O=C(Nc1nnc(SCc2ccccc2)s1)C1=COCCO1,.,1.8,4.6,-5,-2,1,3.6
CC(=O)c1cccc(NC(=S)NC(=O)CC(C)(C)C)c1,4%,8.8,-4.6,0,-4,3,3.2
O=C(Nc1ccccc1N1CCOCC1)c1cc(-c2ccco2)nc2ccccc12,?,1.4,-2.0,-1,-1,13,-7.4
Nc1nc(Br)c2ccccc2c1-c1ccc(F)cc1,-12%,-0.4,1.4,46,3,-2,0.9
CCCCCn1cnc2c(=S)nc(N)[nH]c21,.,.,4.3,.,6,-3,-1.2
CC(=O)Nc1ccccc1OCC(=O)c1cc(C)n(Cc2cccs2)c1C,12%,-4.1,-3.1,-11,4,3,3.0
Cc1cc(C)c(S(=O)(=O)Nc2cc(C)on2)c(C)c1,4%,-1.4,0.8,-7,57,-2,-0.2
CC(=O)N1/C(=C/c2ccc(N(C)C)cc2)C(=O)c2ccccc21,.,.,?,.,46,45*,7.2
O=C(COC(=O)CNS(=O)(=O)c1ccc(F)c(F)c1F)Nc1ccc(OC(F)F)cc1,12%,-4.6,3.1,-1,-2,0,-0.1
CCN1CCc2c(sc(NC(=O)Cc3ccccc3)c2C(N)=O)C1,.,-8.2,155*,-2,-3,-9,4.0
CCN(c1ccc(C(=O)CSc2nnc(C3CC3)n2C2CC2)cc1)S(C)(=O)=O,5%,-2.3,.,96*,.,-8,-2.4
COc1cccc(C2(c3cccc(OC)c3)CC2C(=O)Nc2cccc3ccccc23)c1 (centres undefined),15%,-1.8,1.0,-11,7,-1,-2.9
CCCc1ccc(S(=O)(=O)N2CCN(C(C)C(=O)NC3CCCC3)CC2)cc1 (centres undefined),-2%,.,.,.,.,-7,-4.6
COc1ccc(NC(=O)N(C)C[C@H]2Oc3c(NC(=O)C4CCCCC4)cccc3C(=O)N([C@H](C)CO)C[C@@H]2C)cc1,-4%,-4.0,.,.,.,-4,-4.4
CCOc1ccc(/C=N/Nc2cc(C)nc(N3CCOCC3)n2)cc1,15%,-1.2,1.9,-2,26,-2,3.4
Cc1ccc(NC(=O)CN(C)C(=O)/C=C/c2cccs2)cc1,.,1.8,1.5,3,-7,-6,-1.1
CCn1nc(C)cc1C(=O)OCC(=O)c1ccc(Cl)cc1,.,6.2,-3.6,1,9,-3,-1.8
O=C(C[C@@H]1NS(=O)(=O)OC2CCCCC21)c1ccccc1 (some centres undefined),.,0.2,9.6,0,-9,6,5.6
CC(C)CC1NC(=O)N(CC(=O)N2CCN(S(=O)(=O)c3ccc(Cl)cc3)CC2)C1=O (centres undefined),6%,5.2,-1.9,-13,4,2,-0.5
COc1cc(N2C(=O)c3ccccc3C2=O)c(Cl)cc1C(=O)OCC(=O)N1CCOCC1,.,2.7,0.0,-13,0,7,2.0
O=C(CSc1nc2ccccc2nc1N1CCCC1)Nc1ccc(F)cc1,.,1.4,1.6,-4,7,18,5.1
COc1ccccc1NC(=O)CSc1nnc(C)n1CC1CCCO1 (centres undefined),.,3.6,1.9,-20,13,-13,-0.9
CCN(C(C)=O)c1cccc2ccccc12,2%,5.8,?,-3,-9,-4,1.5
COc1ccccc1C(=O)C1CCCN(C(=O)c2snnc2C)C1 (centres undefined),2%,1.4,9.3,1,-23,-1,3.6
CCCCCCn1c(=O)c(-c2ccccc2)c(O)c2ccccc21,3%,-6.1,10.0,.,?,4,2.3
COc1ccc(CC(CN)c2ccccc2)cc1 (centres undefined),-10%,4.0,0.1,-22,4,-2,6.7
CCN1CCC(C(N)=O)CC1,25%,-1.8,-0.6,-3,-6,1,-4.9
Cc1ccc(S(=O)(=O)CCC(=O)OCC(=O)NC2CCS(=O)(=O)C2)cc1 (centres undefined),.,25*,.,0,-3,2,1.6
COc1ccc2nc(C3CCCCC3)nc(C3CCCCC3)c2c1,.,-4.3,3.2,-2,-2,1,-2.6
O=C(NNC(=O)c1ccc(Br)s1)NC1CCCCC1,.,-1.4,5.4,-17,16,-9,1.0
CCCc1cc(=O)oc2cc(OCC(=O)NCCc3c[nH]c4ccc(OC)cc34)ccc12,.,0.0,1.0,.,6,-14,1.9
Cc1ccc(NC(=O)C2=CC=CN3CCS(=O)(=O)N=C23)cc1,-5%,-0.8,.,-2,.,-12,1.0
COc1cc2c(cc1OC)C(Nn1cnnc1)=NC1(CCCC1)C2,-9%,6.8,8.3,.,10,1,1.2
O=C(/C=C/c1cccc([N+](=O)[O-])c1)c1ccc([N+](=O)[O-])o1,.,1.4,-1.3,7,2,67*,0.3
Cc1ccc(NC(=O)CSc2nc3[nH]c(=O)cc(O)c3s2)c(Br)c1,-6%,.,.,39,.,-4,4.1
O=C(Nc1cccc2cccnc12)c1cccnc1,?,1.4,3.9,-19,18,-1,-4.5
O=S(=O)(Nc1ccc(Cl)cn1)c1ccc2c(c1)OCCO2,-10%,-0.4,0.8,-7,18,-3,5.7
Cc1cc(C(=O)NNC(=O)C2CCCC2)c(C)o1,.,2.0,1.2,-4,8,12,3.2
O=C(O)CN(Cc1ccco1)S(=O)(=O)c1ccccc1,-2%,-0.1,3.7,2,-7,1,-1.1
N#C/C(=C(/O)COc1ccccc1)c1nnc2n1CCCCC2,.,3.3,3.2,14,-13,-7,0.1
CC(=O)c1cc(-c2ccccc2)n(CC(=O)Nc2cc(C)cc(C)c2)c1C,2%,-0.3,-0.5,-3,5,7,-2.0
COCCCNC(=S)N1CCN(Cc2ccc3c(c2)OCO3)CC1,.,-0.4,-4.3,1,1,1,4.4
C=CCNC(=O)c1onc(CSc2ccc(C)c(C)c2)c1C(=O)O,0%,5.8,2.2,98*,9,5,0.8
C=C(C)Cn1c(SCC(=O)O)nnc1-c1ccc(C(C)(C)C)cc1,7%,-6.9,-1.9,2,.,2,-3.9
N#CCCN(Cc1cccnc1)C(=S)NCc1ccco1,-2%,-1.6,-2.1,-19,15,-7,-1.5
CCC1=NN2C(=N)/C(=C\c3ccc(OCCOc4ccccc4)c(OC)c3)C(=O)N=C2S1,.,2.8,-1.3,7,10,.,.
CCOc1ccc2nc(NC(=O)CSc3cn[nH]n3)sc2c1,.,1.4,6.3,1,11,1,-2.2

# Record cards (already shown). Values in the order: Vif TR-FRET	LANA-H2B inh	RanGTP-Impb inh	ALR inh	Calb FLC	Beta2AR agonist	HNF4A DNA FP
# Entry for N#CCCN(Cc1cccnc1)C(=S)NCc1ccco1 : -2%	-1.6	-2.1	-19	15	-7	-1.5
# Entry for Cc1cc(C(=O)NNC(=O)C2CCCC2)c(C)o1 : .	2.0	1.2	-4	8	12	3.2
# Entry for N#C/C(=C(/O)COc1ccccc1)c1nnc2n1CCCCC2 : .	3.3	3.2	14	-13	-7	0.1
# Entry for C=C(C)Cn1c(SCC(=O)O)nnc1-c1ccc(C(C)(C)C)cc1 : 7%	-6.9	-1.9	2	.	2	-3.9

# Further compounds follow:
SMILES,Vif TR-FRET,LANA-H2B inh,RanGTP-Impb inh,ALR inh,Calb FLC,Beta2AR agonist,HNF4A DNA FP
O=C(CNC(=O)c1ccccc1)NCC(=O)OCC(=O)c1ccc([N+](=O)[O-])cc1,.,1.6,-0.7,97*,14,-3,-0.1
Cc1ccc(C(=O)COC(=O)CCN2C(=O)C3C4CCC(C4)C3C2=O)cc1C (centres undefined),.,0.3,1.9,0,-11,-2,1.3
Cc1ccc(NC(=S)NC(=O)C2CCCC2)c(Br)c1,.,-3.9,.,2,.,4,-1.4
COc1ccccc1N1CCN(C(=O)CSc2nc(C)c(Cc3ccccc3)c(=O)[nH]2)CC1,-2%,-2.0,-1.1,7,-2,1,0.5
Cc1ccccc1C(=O)N1CCN(c2ccc(NC(=O)c3cccs3)cc2)CC1,.,1.7,?,13,-2,-4,-3.3
O=C(CN1CCN(Cc2ccccc2)CC1)c1ccccc1,24%,-0.8,-1.2,-13,-2,-3,2.2
CN1CCN(S(=O)(=O)c2ccc(Br)c3ccccc23)CC1,-1%,2.1,4.3,-17,0,4,-6.2
CC1CN(Cc2ccc(C#N)cc2Cl)CC(C)O1 (centres undefined),3%,-5.3,7.6,9,5,2,0.5
C=CCn1c(=NC(=O)c2cccc(N3C(=O)CCC3=O)c2)sc2cccc(OC)c21,2%,0.2,2.6,-18,10,26,-2.1
CN(C)c1ccc(-c2nnn(CC(=O)Nc3ccccc3N3CCOCC3)n2)cc1,5%&25%,-2.3,1.8,27,0,-14,0.2
N#C/C(=C1\CCCN1)c1nc2ccccc2c(=O)[nH]1,6%,2.0,5.0,-4,11,-10,0.6
O=C(Nc1ccccc1F)C1CCCN(S(=O)(=O)c2cccc3cccnc23)C1 (centres undefined),3%,-3.5,-0.2,-3,-11,0,3.1
CC(=O)NNC(=O)c1[nH]c2ccc(Cl)cc2c1-c1ccccc1,-5%,1.3,2.3,44,7,1,7.2
CCOc1cc2c3c(c1)C1(OCCO1)C(=O)N3C(C)(C)CC2C (centres undefined),-1%,-3.5,6.3,4,20,-4,-0.8
CCc1nccn1S(=O)(=O)c1ccc(OC)c(OC)c1,-2%,-1.3,-0.3,-4,-6,28,-1.6
CCOC(=O)C1CCN(C(=O)C2CCCN2S(=O)(=O)c2ccc(Cl)cc2)CC1 (centres undefined),.,-3.7,3.4,2,13,1,3.0
Cc1ccc(/C=N/NC(=S)NC2CCS(=O)(=O)C2)cc1 (centres undefined),3%,-4.0,3.7,3,-4,-1,-3.6
COc1cc(C(Nc2ccc3c(c2)OCO3)C(=O)NC2CCCCC2)cc(OC)c1OC (centres undefined),?,-3.9,0.8,?,3,-4,-0.8
O=c1oc2ccccc2c(Nc2ccc3ncccc3c2)c1[N+](=O)[O-],10%,1.4,-0.6,-52,2,8,-0.9

# Screens from PubChem.
